Compound activity (PubChem)
miR-21 FLuc = qHTS Assay for Modulators of miRNAs and/orActivators of miR-21. AID 2288, 2010. 340,000 tested, under 10 active. HeLa miR-21 FLuc reporter, luciferase, 48 h. Potency, µM (highest dose often 38.3 µM), without a hit: at the top dose reporter change, positive = more light; active = well fitted rising curve with a large enough effect; inconclusive = small, poorly fitted or top-dose-only effect; inactive = no such curve, though single readings can be large or run the other way;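 further: % of control where 0% means no effect; miR-21 action dims this reporter so a rising signal means less miR-21 action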
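Using DMEM plus 10% FBS, HeLa miR-21-FLuc cells are incubated with test compounds (final up to about 40uM) for 48 hours; firefly luciferase signal is then imaged following reagent-mediated lysis.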
GLA inh pH 4.5 = qHTS Assay for Inhibitors of Human alpha-Galactosidase at pH 4.5. Alpha-galactosidase A (Homo sapiens), P06280. purified enzyme, 4-MU-alpha-Gal fluorescence, pH 4.5. activity change, negative = inhibition, % at 105 µM. 230,000 tested, under 10 active; inconclusive = small, poorly fitted or top-dose-only inhibition, or a rising curve; inactive = flat fitted curve, though single readings scatter; no compound was filed as active;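 further: 0% = full activity with enzyme and -100% = basal without enzyme; dose as in the result columns while the protocol names 77 µM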
Target sequence (P06280 whole entry, looked up): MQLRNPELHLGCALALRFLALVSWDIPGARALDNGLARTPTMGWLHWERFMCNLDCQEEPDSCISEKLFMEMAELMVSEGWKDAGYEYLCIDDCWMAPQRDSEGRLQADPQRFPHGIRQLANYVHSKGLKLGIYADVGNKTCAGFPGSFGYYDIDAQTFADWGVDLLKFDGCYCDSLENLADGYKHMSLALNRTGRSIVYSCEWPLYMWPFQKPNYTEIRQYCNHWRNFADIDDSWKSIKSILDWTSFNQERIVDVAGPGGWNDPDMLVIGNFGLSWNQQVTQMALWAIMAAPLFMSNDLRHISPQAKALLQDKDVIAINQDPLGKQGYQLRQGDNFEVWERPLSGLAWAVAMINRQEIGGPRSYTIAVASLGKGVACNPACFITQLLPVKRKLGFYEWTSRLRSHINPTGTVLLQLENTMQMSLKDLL
Rango complex inh = qHTS Assay for Inhibitors of Rango (Ran-regulated importin-beta cargo) - Importin beta complex formation. Rango CFP/YFP FRET sensor + importin beta, 45 min. Potency, µM (doses to about 92.2 µM), without a hit: at the highest dose inhibition of complex formation. 340,000 compounds, 0.031% hits. AID 540263, 2011; active = rising FRET ratio curve, often small or poorly fitted; inconclusive = mostly compound fluorescence or quenching in the first reads; inactive = flat curves in all reads;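 further: potency means the concentration at half of the fitted maximal effect; 0% = DMSO wells and 100% = buffer wells lacking importin beta; nearly all actives have a fitted effect of over 15% in size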
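Inhibition scored from the CFP 486 nm/YFP 530 nm FRET ratio 45 min after adding 0.125 microM importin beta to 50 nM Rango biosensor preincubated 5 min with compound (room temperature, PBS with DTT, Tween-20, BSA). No-importin wells as positive control.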
Rango release inh = qHTS Assay for Inhibitors of RanGTP induced Rango (Ran-regulated importin-beta cargo) - Importin beta complex dissociation | 340,000 compounds, 0.071% hits | Potency, µM (highest dose often 46.1 µM), for the others: at the highest dose activity change, negative = inhibition | Snurportin-1 (Homo sapiens) + GTP-binding nuclear protein Ran (Homo sapiens) + Importin … | Biochemical FRET Rango-importin beta, RanGTP-induced dissociation; active means falling FRET ratio curve, often poorly fitted, with flat reads before Ran was added; inconclusive means other falling curves, or compound fluorescence or quenching; inactive means flat or rising ratio curve;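 further: potency means the concentration at half of the fitted maximal effect; % of control where 0% means no effect; nearly all actives have a fitted effect of over 45% in size; -100% = wells without RanGTP and RCC1; the record marks most hits as doubtful in a second field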
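Quantitative HTS using a FRET biosensor: 0.1 uM Rango, 0.25 uM importin beta, 0.6 uM Ran, 2 mM GTP, 0.2 uM RCC1 final, PBS with DTT, Tween-20 and BSA. Post-read taken 45 min after Ran addition.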
* marks the source's active call; other numbers are inactive results; u = inconclusive; x = no result given; & = joins results of further samples; [ ] = dose if it differs, or a comment.

Below each compound – GLA inh pH 4.5	miR-21 FLuc	Rango release inh	Rango complex inh
COc1ccc2c(c1)Cc1sc(NC(=O)c3cccs3)nc1-2
  -17	-22%	u	u
CC[C@H](C)[C@H](NC(N)=O)C(=O)NCCc1ccc(Cl)cc1Cl
  -8	0%	10%	-3.6%
Cc1ccc(/C=C/C(=O)OC(C)C(=O)Nc2ccc(Cl)cn2)o1 (stereo not given)
  2	-7%	-1%	u
O=C(c1cccc(Cl)c1)N1CCN(Cc2ccncc2)CC1
  -2	0%	-4%	6.7%
O=C(C1=C(O)C(=O)N(Cc2cccnc2)C1c1cccc(Oc2ccccc2)c1)c1ccco1 (stereo not given)
  x	x	-19%	-1.3%
Cc1ccc(OCCC(=O)Nc2ccc(S(=O)(=O)Nc3nccs3)cc2)cc1
  x	x	2%	0.0%
O=C1N[C@@H](Cc2ccccc2)COC(=O)[C@H](Cc2ccc(F)cc2)CC/C=C/C[C@H]1CC(=O)N(CCO)Cc1ccccc1
  x	x	0%	0.8%
CCCc1nc(SCC(=O)N2CCc3ccccc32)c2c(=O)n(C)c(=O)n(C)c2n1
  8	-3%	x	x
CC(=O)Nc1ccc(S(=O)(=O)N/N=C/c2ccc(C)o2)cc1
  x	0%	12%	-2.7%
O=C(O)c1ccc([N+](=O)[O-])cc1-c1cc([N+](=O)[O-])ccc1C(=O)O
  x	x	-8%	-0.3%
CCCC(=O)NCc1nc2ccccc2n1CC(=O)c1ccccc1
  x	4%	-1%	0.6%
CCOc1ccccc1C(=O)N1CCCCC1C (stereo not given)
  2	-2%	2%	-3.0%
CCOC(=O)CN1CC(C)(C)N(CC(=O)OCC)CC1(C)C
  x	x	2%	-1.3%
CCN(c1ccc(OC)cc1)S(=O)(=O)c1ccc2c(c1)CCN2C(=O)CCC(=O)O
  -6	-2%	-21%	3.7%
CCOC(=O)C(C(=O)OCC)C(C(=O)OCC)N1CCOCC1 (stereo not given)
  3	0%	1%	2.4%
Cn1c(N)c(C(=O)COC(=O)/C=C/c2ccc(F)cc2)c(=O)n(C)c1=O
  x	x	8%	6.9%
Cc1cccc(CSc2ccc3nnc(-c4cccnc4)n3n2)c1
  5	-6%	-13%	-1.7%
CCOC(=O)c1cccc(NC(=O)CCNS(=O)(=O)c2cccc3nonc23)c1
  x	-2%&6%	15%	7.5%
Cc1ccc(-c2ccc(=O)n(CC(=O)NCCCN3CCCCC3C)n2)cc1 (stereo not given)
  6	-8%	5%	0.5%
Cc1cccc(Cc2nnc(CCC(=O)NCc3cn4ccccc4n3)o2)c1
  4	-3%	-14%	-4.1%
COc1ccc(N(CC(=O)Nc2c(C)n(C)n(-c3ccccc3)c2=O)S(=O)(=O)c2ccc(C)cc2)cc1
  3	-4%	17%	0.4%
CN(C(=O)COC(=O)c1cccc(S(=O)(=O)N2CCOCC2)c1)C1CCS(=O)(=O)C1 (stereo not given)
  x	x	u	-1.6%
Cc1ccccc1-c1cc(C(=O)NCc2ccc(OC(F)(F)F)cc2)n(CC2CC(c3cccnc3)=NO2)n1 (stereo not given)
  x	x	-7%	-1.4%
CCOc1ccc(N(CC(=O)N/N=C/c2cccnc2)S(C)(=O)=O)cc1
  1[21.1 µM]	-3%	3%	-4.4%
COc1ccccc1NC(=O)Cc1csc(N)n1
  -3	-2%	1%	-0.1%
COc1ccccc1NS(=O)(=O)c1cccc(C(=O)OCC(=O)NC2CC2)c1
  x	x	-15%	0.7%
O=[N+]([O-])c1ccccc1CS(=O)(=O)c1ccccc1
  x	x	u	-3.4%
CCCCN(C(=O)C1CCCC1)c1c(N)n(CCC)c(=O)[nH]c1=O
  x	x	-18%	0.9%
COc1cc(/C=N/Nc2ncc(C(F)(F)F)cc2Cl)cc(OC)c1OC
  5	16%	-20%	u
CCOC(=O)C1CCCN(S(=O)(=O)c2c(C)c(C)cc(C)c2C)C1 (stereo not given)
  -5	-2%	20%	2.3%
COC(=O)C1CCN(C(=O)C23CCC(C)(C(=O)O2)C3(C)C)CC1 (stereo not given)
  -3	-4%	u	0.4%
COc1ccc(OC)c(NC(=O)c2nc3ccccc3s2)c1
  0	-13%	-9%	-0.1%
CCN1C(=NCCc2cccnc2)N[C@@H](c2ccccc2)[C@H](C(=O)OC)[C@H]1C
  x	0%&-9%	-13%	u
COc1cc2ccccc2cc1C(=O)N(CCN(C)C)c1nc2c(C)cccc2s1
  x	-3%	1%	-0.3%
COc1ccccc1NC(=O)CSc1sc2c(O)cc(=O)[nH]c2c1C#N
  x	2%	0%	0.5%
Cc1ccc(C)c(/C(O)=C2/C(=O)C(=O)N(CCN3CCOCC3)C2c2ccc(C)o2)c1 (stereo not given)
  -7	-3%	-13%	-4.2%
CCC1CC(C)(C(=O)Nc2ccc(S(N)(=O)=O)cc2)OC1=O (stereo not given)
  -5	0%	1%	1.7%
CC(C)Oc1ccc(S(=O)(=O)N2CCOCC2)cc1NC(=O)c1cc([N+](=O)[O-])ccc1N1CCOCC1
  x	x	5%	u
O=S(=O)(NC1CCCC1)c1ccc(S(=O)(=O)N2CCc3ccccc32)cc1
  -5	21%	-13%	-0.8%
CN(C)C(=S)Nc1ccc2ccccc2c1
  4	-23%	23%	-5.4%
COc1ccc(Cl)cc1C(=O)Nc1ccc(N(C)C(C)=O)cc1
  1	-22%	-9%	-2.0%
Nc1nc(SCc2c(F)cccc2Cl)[nH]c(=O)c1-c1ccccc1
  -1	-17%	14%	-3.2%
CCCCCc1c(C)c(C#N)c2nc3ccccc3n2c1-n1ccnc1C
  -7	4%	1%	u
Cc1nn(C(C)C(=O)N2CCOCC2)c(=O)c2nn(-c3ccccc3)c(C)c12 (stereo not given)
  x	-3%	6%	7.7%
CCCNC(=O)C(Cc1ccc(C(F)(F)F)cc1)NC(=O)c1ccc2ccccc2n1 (stereo not given)
  x	x	0%	3.0%
CN(C)Cc1cn(CCC(=O)O)c2ccccc12
  x	x	-2%	-5.8%
Cn1c(=O)[nH]c(=O)c2c1nc1n2CC(O)CN1c1ccccc1 (stereo not given)
  x	2%	-21%	3.4%
Cc1nc(NC(=O)c2cnccn2)ccc1Br
  x	-58%	-12%	0.1%
Cc1ccc(S(=O)(=O)N(C)C)cc1-n1c(SCC(=O)Nc2ccc(F)c(F)c2F)nc2ccccc2c1=O
  -11	-3%	4%	0.0%
CCN(c1ccc(NC(=O)COC(=O)/C=C/c2cccs2)cc1)C(C)C
  -6	1%	-7%	1.6%

(list continues)
Below each compound – GLA inh pH 4.5	miR-21 FLuc	Rango release inh	Rango complex inh
Cc1sc2nc(SCCN(C)C)n(-c3ccccc3)c(=O)c2c1-c1ccc(F)cc1
  x	-1%	8%	0.4%
CC(=O)Nc1ccc(Oc2cc(C#N)c(C#N)cc2N2CCCCCC2)cc1
  3	12%	2%	6.8%
COc1ccc(C(C[N+](=O)[O-])c2c(C)[nH]c3ccccc23)cc1OC (stereo not given)
  2	-7%	-28%	0.7%
COc1cccc(C(=O)Nc2ccc3c(c2)OCO3)c1OC
  x	-67%	17%	-2.6%
Cc1ccc(Cl)cc1NC(=O)c1ccc(NC(=O)CCC(=O)O)cc1
  -4	-4%	0%	-3.7%
Cc1cccc(N(CC(=O)N2CCCC2)S(C)(=O)=O)c1
  x	-2%	28%	-2.4%
O=C(C1CC1)N1CCCC(c2ccc(Cl)cc2)=N1
  -4	-40%	10%	-2.1%
CCOC(=O)CC1=NN(c2ccccc2)C(=O)/C1=C\c1ccc(N(C)C)cc1
  7	-6%	10%	-0.3%
Cc1ccc(NC(=O)CN2C(=O)NC3(CCCCCCC3)C2=O)cc1C
  x	x	1%	4.8%
CCOC(=O)C1CCN(C(=O)c2cccc(NC(=O)C(CC)CC)c2)CC1
  -11	-5%	-15%	2.3%
COc1cccc(C2C(C(=O)Nc3nc4ccccc4s3)=C(C)NC3=C2C(=O)CC(C)(C)C3)c1OC (stereo not given)
  u	-7%	u	u
O=C(Nc1cccc(NC(=O)c2cccs2)c1)c1cccnc1
  10	-1%	4%	0.7%
CC1CCN(Cc2nc3c(c(=O)n(C)c(=O)n3C)n2CCCc2ccccc2)CC1
  3	-1%	1%	2.2%
Cn1c(SCc2cccc(F)c2)nnc1-c1ccncc1
  x	-4%	-19%	-3.6%
COc1ccc(/C=C2\SC(=O)N(CC(=O)Nc3ccccc3O)C2=O)cc1OC
  x	5%	u	u
COc1ccc(Cl)cc1NC(=O)CN(C)C(=O)c1cc(-c2ccncc2)nc2ccccc12
  x	x	-6%	-0.8%
COc1ccc(C(=O)NCc2csc(-c3cccs3)n2)cc1
  1	1%	7%	-1.6%
Cc1csc(NC(=O)CSc2nccn2Cc2ccco2)n1
  x	-17%	-9%	-2.4%
CCOc1ccc(-n2c(C)nc3cc(C(=O)NCCCN4CCOCC4)ccc32)cc1
  0	-2%	3%	-2.5%
CC(C)(C)OC(=O)NCCCCCc1nnc(SCC(N)=O)o1
  3	-14%	1%	1.3%
Cc1cc(O)cc(=O)n1Cc1ccco1
  9	1%	-3%	-0.7%
O=C(c1ccc(F)cc1)C(CCCCCC(CN1CCOCC1)C(=O)c1ccc(F)cc1)CN1CCOCC1 (stereo not given)
  -7	10%	3%	0.2%
Cc1ccc(C(=O)NCc2ccc(N3CCN(C)CC3)cc2)cc1C
  x	-23%	-6%	0.8%
COc1ccc(CCn2c(-n3nc(C)cc3C)nc3c2c(=O)[nH]c(=O)n3C)cc1
  x	x	22%	0.7%
Cc1nc(C)c(C(=O)NCc2ccc(Cl)cc2)o1
  -4	1%	5%	-3.7%
CC1Cc2ccccc2N1C(=O)c1ccc(Br)o1 (stereo not given)
  x	x	-16%	-1.2%
CC(=O)c1ccc(NC(=O)c2cc3nc4c(c(C(F)(F)F)n3n2)CCCC4)cc1
  -2	-27%	x	x
O=C(CSc1nnc2ccccn12)NC(=O)c1cccc([N+](=O)[O-])c1
  x	x	-3%	1.8%
COCC(=O)Nc1c(C(=O)Nc2cccc(OC)c2)oc2ccccc12
  -23	-27%	17%	0.0%
O=C(COC(=O)c1ccc(F)cc1Cl)NC1CCCCCCC1
  x	x	-1%	0.4%
Cc1cc(C)cc(NC(=O)CSc2n[nH]c(-c3cccnc3)n2)c1
  x	0%	-17%	0.2%
Cn1cnc([N+](=O)[O-])c1SCC(O)CCl (stereo not given)
  -5	-14%	1%	-3.4%
CCn1c(=O)cc(SCC(=O)NCCCN2CCN(c3ccccc3F)CC2)c2ccccc21
  4	-2%	-15%	-1.5%
CN(c1ncc(C(F)(F)F)cc1Cl)N1C(=O)c2cccc([N+](=O)[O-])c2C1=O
  -3	1%	-1%	-0.7%
O=C(Cn1nnc2ccccc21)N1CCCCC1
  -3	-7%	1%	-1.1%
Cc1ccc(/C(N)=N/OC(=O)CCC2CCCC2)cc1
  -3	-12%	13%	0.5%
Cc1ccc(C(=O)N2CCN(c3ccc(NC(=O)COc4ccccc4C)cc3)CC2)cc1
  -8	30%	-5%	0.4%
CCC(C)(C)n1nnnc1C(c1ccccc1F)N1CCN(C(=O)c2ccco2)CC1 (stereo not given)
  x	1%	-16%	1.0%

Three of the entries above in order of their number in miR-21 FLuc, lowest first.
Below each compound – GLA inh pH 4.5	miR-21 FLuc	Rango release inh	Rango complex inh
O=C(Cn1nnc2ccccc21)N1CCCCC1
  -3	-7%	1%	-1.1%
CCn1c(=O)cc(SCC(=O)NCCCN2CCN(c3ccccc3F)CC2)c2ccccc21
  4	-2%	-15%	-1.5%
CCC(C)(C)n1nnnc1C(c1ccccc1F)N1CCN(C(=O)c2ccco2)CC1 (stereo not given)
  x	1%	-16%	1.0%

Only part of the results is shown; the hit share may differ from the screen's.
